# Assay outcomes deposited in PubChem BioAssay by several laboratories.
# PrP UTR inh: inhibition of PrP 5' UTR reporter expression. inhibition, % (concentration not given with the values). cell-based PrP 5' UTR mRNA reporter, plate reader. 340,000 tested, 0.35% active;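 active = every replicate at 50% or more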;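 also: 0 = median of the neutral control wells; tested in H4 reporter cells; numbers are from one replicate; inactives centre near -14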
# Bead autofluor: flagged as autofluorescent in microsphere protease counterscreen | compound autofluorescence counterscreen, microsphere flow cytometry; stronger effect = higher value | fluorescence intensity (test concentration not listed) | 360,000 tested, 3.1% active;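 active = at least 3 SD above the mean of all compounds, about 16000 in these data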;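 also: 100 nL of 1 mM stock went into each well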
# Active calls of the source: *. The list is partial; the hit share may differ from the screen's.
SMILES,PrP UTR inh,Bead autofluor
COC(=O)C1=C(C(=O)OC)SC2(S1)C(C(=O)OC)=C(C(=O)OC)Sc1c2ssc1=O,74.8*,4083
O=Cc1nccc2ccccc12,-12.6,4072
COc1cccc(C(=O)O[C@H]2[C@H](Cc3ccccc3)NS(=O)(=O)[C@H]3C[C@@H]4C=C[C@]23O4)c1,-63.8,2929
Cc1nc(Cl)sc1C(=O)Nc1cccc(C(F)(F)F)c1,-23.8,3694
C[C@H](CO)N1C[C@H](C)[C@@H](CN(C)C(=O)NC2CCCCC2)Oc2c(NS(=O)(=O)c3ccccc3)cccc2C1=O,-2.2,4027
CCCNC(=O)N1[C@H]2CC[C@@H]1C(C(=O)OC)=C(c1ccc(OC)c(OC)c1)C2,-7.4,4100
COC(=O)C1=C(c2ccc(C(C)=O)cc2)C[C@@H]2CC[C@H]1N2C(=O)NCc1ccc(F)cc1,-17.6,3998
O=C(NC1CCCCC1)c1n[nH]c2c1CCCCC2,79.5*,4157
O=c1cc(C2CCCCC2)[nH]c(=O)[nH]1,-3.6,4671
CCCCN1CC(COCc2ccccc2)Oc2cccc(Oc3ccc(F)cc3)c2S1(=O)=O (stereo unspecified),-12.0,3910
O=c1[nH]c(=O)c2cc3ccccc3nc2[nH]1,-11.7,4419
C#CCOCCOCCOCCNc1nc(N2CCN(C(=O)Cn3cc(CCCCN)nn3)CC2)nc(N2CCN(C(=O)[C@H]([C@@H](C)CC)n3cc(CCCCN)nn3)CC2)n1,-15.3,4721
COc1ccc(S(=O)(=O)N(C)C[C@H]2Oc3ccc(NC(=O)Cc4ccccc4)cc3C(=O)N([C@H](C)CO)C[C@@H]2C)cc1,-34.1,3645
O=C(COc1ccccc1)NCC(=O)N/N=C/c1cc(Br)ccc1OCc1ccccc1,-23.1,1943
Cc1cc(NC(=O)COC(=O)c2cnccn2)ccc1Br,-11.0,3560
CC(=O)Nc1ccccc1C,2.0,5738
Cc1[nH]nc(C(F)(F)F)c1N=NN1CCOCC1,-13.9,3804
CCC(=O)Nc1ccc(Cl)c(Cl)c1,-86.8,5162
CC(=O)O[C@H]1[C@H]2O[C@]23[C@@H]2CC[C@]4(O)C[C@@H](O)CC[C@]4(C)C2CC[C@]3(C)[C@H]1c1ccc(=O)oc1 (stereo partly specified),94.2*,2886
O=C(NCc1ccccc1)c1cccc(NC(=O)C2CCCCC2)c1,-7.6,3426
CC(C)C[C@H]1CN([C@@H](Cc2ccc(O)cc2)CN2CCC[C@@H]2CN2C(=O)C(=O)NC[C@@H]2Cc2ccccc2)C(=O)C(=O)N1CC1CCCCC1,-18.7,4030
O=C(Nc1ccc(C(=O)N2CCCCC2)cc1)c1ccccc1,-5.8,3898
Cc1oc(-c2cccs2)nc1CNC[C@H]1O[C@@H](n2cnc(C(N)=O)n2)[C@H](O)[C@@H]1O,-5.6,3092
CC(C)(C)OC(=O)C[C@H]1C/C=C\C[C@@H](CC(=O)N(CCO)Cc2ccccc2)C(=O)N[C@H](C(C)(C)C)COC1=O,-19.3,2958
COc1ccc(SCCN2CC[C@@H](O)CCC2=O)cc1,-9.3,4031
# The list continues:
SMILES,PrP UTR inh,Bead autofluor
O=C(N/N=C\c1cc2c(cc1[N+](=O)[O-])OCO2)c1cccs1,-32.2,6429
C#CCOCCOCCOCCNc1nc(N2CCN(C(=O)[C@H](C)n3cc(CCC(=O)O)nn3)CC2)nc(N2CCN(C(=O)[C@H](C)n3cc(CCC(=O)O)nn3)CC2)n1,-7.1,3552
O=c1[nH]nc(Br)c(=O)n1C(c1ccccc1)c1ccccc1,-10.5,3261
COC1=CC(=O)C=C(OC)C1=O,-19.6,5178
C/C(CC1CC(COCCC(C)C)OC1=O)=N\NC(N)=S (stereo unspecified),-35.6,20283*
O=C(Cn1ncc(Cl)c(Cl)c1=O)NC(=O)NC1CCCCC1,-33.4,3923
C=CCC[C@H](Cc1ccc(F)cc1)C(=O)OC[C@H](Cc1c[nH]c2ccccc12)NC(=O)[C@@H](CC=C)CC(=O)NCCO,-35.3,3372
COc1ccc(C(=C(CC(=O)O)C(=O)OC(C)(C)C)c2cc(OC)c(OC)c(OC)c2)cc1OC,-31.2,3602
COCOC1CCC2C3CCC4=CC(=O)CCC4=C3C=CC12C (stereo unspecified),-5.9,4524
COc1cc(/C=N/NC(=O)c2ccccc2NS(=O)(=O)c2cccs2)ccc1O,14.9,5770
COC(=O)[C@]1(Cc2ccccc2)N[C@H](CN(C)C(=O)c2ccccc2)[C@@H]2C(=O)N(Cc3ccccc3)C(=O)[C@@H]21,-6.3,3614
NC(=O)c1ncn([C@@H]2O[C@H](CNCc3ccc(OCC(=O)Nc4ccccn4)cc3)[C@@H](O)[C@H]2O)n1,-24.4,3494
CCOc1ccc(/C=N/NC(=O)c2ccccc2Cl)cc1CN1CC2CC(C1)c1cccc(=O)n1C2 (stereo unspecified),1.9,4301
CC(/C=N/NC(=O)c1cc(-c2ccc(C)o2)[nH]n1)=C\c1ccccc1,-22.7,2086
COC(=O)CCN1CCC2CC1c1cc(Cl)ccc12 (stereo unspecified),-30.7,3617
Cc1ccc(S(=O)(=O)N2[C@@H](c3ccccc3)C(C(=O)O)=CC[C@H]2c2cccs2)cc1,-26.6,3476
Fc1ccc(CNc2ccc(CNc3ncn[nH]3)cc2)cc1,-12.7,21380*
CC(c1ccccc1)N1C(=O)OC(C)(C)C1(C)O (stereo unspecified),-35.5,4540
C[C@H](CO)N1C[C@H](C)[C@@H](CN(C)Cc2ccc(Cl)c(Cl)c2)Oc2c(NC(=O)C3CC3)cccc2C1=O,-27.3,4243
c1nc(CCO[C@H]2CCCCO2)cc2cc3c(cc12)OCO3,63.0*,4351
CCc1nnc(NC(=O)c2cc(S(=O)(=O)N3CCN(CC)CC3)ccc2Cl)s1,45.0,3407
CCCCOc1cccc(C2C(C(=O)c3ccc(C)o3)=C(O)C(=O)N2Cc2ccco2)c1 (stereo unspecified),-42.9,5086
O=C(C[C@H]1C/C=C\CC[C@@H](Cc2ccc(F)cc2)C(=O)O[C@@H](c2ccccc2)CNC1=O)N[C@H](CO)Cc1ccccc1,-16.8,3006
CCOC(=O)N1CCC2CC1c1cc(Cl)ccc12 (stereo unspecified),-21.2,3666
COC(=O)[C@H](Cc1ccc(O)cc1)NC(=O)Cn1ccc(NC(=O)OCc2ccccc2)nc1=O,-30.4,3940

# Gathered by group: the compounds so far with a thiophene ring, fused or not (4)
SMILES,PrP UTR inh,Bead autofluor
Cc1oc(-c2cccs2)nc1CNC[C@H]1O[C@@H](n2cnc(C(N)=O)n2)[C@H](O)[C@@H]1O,-5.6,3092
O=C(N/N=C\c1cc2c(cc1[N+](=O)[O-])OCO2)c1cccs1,-32.2,6429
COc1cc(/C=N/NC(=O)c2ccccc2NS(=O)(=O)c2cccs2)ccc1O,14.9,5770
Cc1ccc(S(=O)(=O)N2[C@@H](c3ccccc3)C(C(=O)O)=CC[C@H]2c2cccs2)cc1,-26.6,3476

# 4 entries out of the list, sorted by heavy-atom count, rising.
SMILES,PrP UTR inh,Bead autofluor
COC1=CC(=O)C=C(OC)C1=O,-19.6,5178
c1nc(CCO[C@H]2CCCCO2)cc2cc3c(cc12)OCO3,63.0*,4351
NC(=O)c1ncn([C@@H]2O[C@H](CNCc3ccc(OCC(=O)Nc4ccccn4)cc3)[C@@H](O)[C@H]2O)n1,-24.4,3494
C=CCC[C@H](Cc1ccc(F)cc1)C(=O)OC[C@H](Cc1c[nH]c2ccccc12)NC(=O)[C@@H](CC=C)CC(=O)NCCO,-35.3,3372

# Other entries follow:
SMILES,PrP UTR inh,Bead autofluor
O=C(OCc1ccccc1)c1ccc(NCc2cc(O)ccc2O)cc1,-22.1,3816
COc1ccccc1N1CC(C(=O)OCc2nc(N)nc(Nc3ccccc3)n2)CC1=O (stereo unspecified),6.4,2984
CC(C)C[C@@H](CNC(=O)OC(C)(C)C)NC(=O)c1nc[nH]c1C(=O)N[C@@H](CC(C)C)C(=O)CNC[C@H](CC(C)C)NC(=O)c1nc[nH]c1C(=O)N[C@@H](Cc1c[nH]c2ccccc12)C(=O)OC(C)(C)C,-25.0,4413
Nc1ncn(C(=S)Nc2ccccc2)n1,-7.1,3680
Oc1ccc(C[C@H]2CNC(=S)N2CC2CCCN2C[C@H](Cc2ccccc2)N2C[C@H](Cc3ccc(O)cc3)N(CC3CCCCCC3)C2=S)cc1 (stereo partly specified),-3.2,2863
CC1=NS(=O)(=O)NC(C)(C)C1,27.7,3247
Cc1ccccc1/C=C1\Oc2ccccc2C1=O,-17.3,3435
Cn1c(-c2ccsc2)c(-c2cccs2)c2cc(-c3ccc4[nH]ccc4c3)ccc21,-5.3,4128
CC12CCC(O)CC1CCC1C2CCC2(C)C(C3=CC(=O)OC3)C(O)CC12O (stereo unspecified),0.2,2814
O=C(O)c1cc(N/N=C/c2ccc3c(c2)OCCO3)ccc1Cl,-1.4,2521
Nc1nc(=O)n(C2CCCO2)cc1Br (stereo unspecified),-7.5,4230
O=C1c2cccc(NCCNCCO)c2C(=O)c2cccc(NCCNCCO)c21,14.0,2020
O=C1NC[C@H](Cc2ccccc2)N(CC2CCN(CCC34CC5CC(CC(C5)C3)C4)CC2)C1=O,-7.8,3375
CN1C[C@@H]2[C@@H]3C(=O)N(C)C(=O)[C@@H]3[C@](Cc3ccccc3)(C1=O)N2C(=O)c1ccc(Cl)cc1,-30.5,4238
O=c1c(O[C@@H]2O[C@H](CO)[C@@H](O)[C@H](O)[C@H]2O)c(-c2ccc(O)cc2)oc2cc(O)cc(O)c12,-18.3,2806
Cc1ccc(NCCN(C)C)c2c(=O)c3cc(O)ccc3sc12,-10.0,4042
CC(C)(C)OC(=O)N(CCc1ccccc1)Cc1ccc(OCc2cccc(NC(=O)C3CCCC3)c2)cc1,-31.2,3382
COc1ccc(S(=O)(=O)Nc2ccc3c(c2)C(=O)N([C@H](C)CO)C[C@H](C)[C@@H](CN(C)C(=O)NC2CCCCC2)O3)cc1,-20.8,3597
C[C@@H](NC(=O)c1[nH]cnc1C(=O)Nc1ccccc1)c1ccccc1,1.7,3777
COc1cc2cc(Oc3ccc4ccc(=O)oc4c3)c(=O)oc2cc1O[C@@H]1O[C@H](CO)[C@@H](O)[C@H](O)[C@H]1O,-14.8,4182
CC[C@H](C)[C@@H]1NC(=O)[C@H]([C@@H](C)CC)NC(=O)[C@@H](CC(C)C)NC(=O)[C@H](Cc2ccccc2)NC(=O)[C@H](Cc2ccccc2)NC(=O)[C@@H]2CCCN2C(=O)[C@@H]2CCCN2C(=O)[C@H](C(C)C)NC(=O)[C@H](CC(C)C)NC1=O,-25.7,4180
O=C(OCc1ccccc1)N1CCC2CC1c1cc(-c3ccc4c(c3)OCO4)ccc12 (stereo unspecified),-17.0,4045
CN1C[C@H]2CON(C)[C@H]2C[C@H]1c1cccc(N2CCOCC2)c1,-18.5,3691
CN1CCc2cccc3c2[C@@H]1Cc1ccc(O)c(O)c1-3,-23.7,4709
Cc1cccc(C(=O)OCC(=O)c2csc(N3CCCCC3)n2)c1[N+](=O)[O-],-26.8,2866
# New compounds follow
SMILES,PrP UTR inh,Bead autofluor
CCCCC(CCc1ccccn1)C(=O)c1ccccc1 (stereo unspecified),-43.3,4712
O=C(COC(=O)c1ccc(O)cc1O)NC1CCCCCC1,-26.8,3011
COc1nc(N)nc2c1ncn2C1OC(CO)CC1O (stereo unspecified),-40.3,3722
O=C(NCc1ccccc1)/C(=N\O)c1ccccc1,-36.5,3573
NC(=O)c1ncn([C@@H]2O[C@H](CNCc3cnc(N4CCOCC4)s3)[C@@H](O)[C@H]2O)n1,-7.8,3191
Cc1cccc(NC(=O)c2nc[nH]c2C(=O)NC2CCN(C(=O)OC(C)(C)C)CC2)c1,7.2,3808
COc1ccccc1C(=O)N1[C@@H](C(C)C)COc2cc(Br)ccc2S1(=O)=O,-14.5,3383
CN(C)c1nc(=NCc2cccs2)ss1,-0.1,4331
C=CC[C@H](CC(=O)OC(C)(C)C)C(=O)OC[C@H]1CCCN1C(=O)[C@@H](CC=C)CC(=O)N(CCO)Cc1ccccc1,-28.7,4133
COc1cc(OC)c(OC)cc1/C=C/c1ccnc2ccccc12,-4.6,3901
O=C(NC1CC1)c1cccc(NC(=O)C2CCC2)c1,-31.0,3773
CC(C)(C)OC(=O)N1CCC(C(=O)Nc2cccc(C(=O)NCCCCc3ccccc3)c2)CC1,-15.4,3619
CN1OC[C@@H]2CN(Cc3ccc(Cl)cc3)[C@H](c3cccc(Br)c3)C[C@@H]21,-2.2,3766
CCCN1CCC[C@@H](c2cccc(O)c2)C1,-23.5,4588
COc1ccc(C2=NNC(=O)C2(C)Br)cc1 (stereo unspecified),-15.6,3815
CC(=O)Nc1ccc(SC(Sc2ccc(NC(C)=O)cc2)c2ccccc2)cc1,-13.8,2960
COc1ccccc1C1=CC(=O)C[C@H](c2ccc(F)cc2)C1,-5.5,3875
C/C(=N\NC(=O)C1CC1)c1ccc(C(C)(C)C)cc1,-13.5,4567
O=C(C[C@H]1C/C=C\CC[C@@H](Cc2ccc(F)cc2)C(=O)OC[C@H]2CCCN2C1=O)N[C@H](CO)Cc1ccccc1,-25.2,2921
CC(C)(C)[C@@H]1COC(=O)[C@@H](Cc2ccc(F)cc2)C/C=C\C[C@H](CC(=O)N(CCO)Cc2ccccc2)C(=O)N1,-8.8,4114
O=C1CC23c4ccccc4N4C(=O)CC5OCC=C6CN1C2CC6C5C43 (stereo unspecified),-19.8,3269
O=C1c2ccccc2C(=O)N1C1C(=O)N2CCSC12C(=O)OCc1ccccc1 (stereo unspecified),1.3,3065
C[C@]12CCC3[C@@H](CC[C@@H]4C[C@H](O)CC[C@]34C)[C@@H]1CCC2=O (stereo partly specified),13.5,4189
O=C(Cc1ccc2c(c1)OCCO2)N/N=C/c1ccco1,-18.8,4012
C[C@@H]1NCCc2cc(O)c(O)cc21,-13.3,6008
O=C(OCCOc1ccccc1F)c1cc(S(=O)(=O)N2CCOCC2)ccc1F,8.2,3787
CN1C/C(=C/c2ccccc2[N+](=O)[O-])C(=O)/C(=C\c2ccccc2[N+](=O)[O-])C1,-17.1,3485
Cc1ccc(S(=O)(=O)N2[C@@H](c3cccc(Cl)c3)C(C(=O)O)=CC[C@H]2c2cccc(C)c2)cc1,-27.2,4311
